HPGD inh: inhibitors of human 15-hydroxyprostaglandin dehydrogenase (HPGD); P15428; purified HPGD, NADH fluorescence kinetic, PGE2 substrate; Potency, µM, for the others: at the top dose activity change, negative = inhibition, hits mostly inhibitors; 150,000 tested, 4.3% active; AID 894; active = well fitted inhibition curve with a large enough effect (not every such curve was filed as active); inconclusive = small, poorly fitted or top-dose-only effect, or another doubt; inactive = no such curve, though single readings can be large or run the other way;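 further: top concentration of the series not given in the record; plate controls included wells without enzyme; inactives centre near -10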
Target sequence (P15428 whole entry, looked up): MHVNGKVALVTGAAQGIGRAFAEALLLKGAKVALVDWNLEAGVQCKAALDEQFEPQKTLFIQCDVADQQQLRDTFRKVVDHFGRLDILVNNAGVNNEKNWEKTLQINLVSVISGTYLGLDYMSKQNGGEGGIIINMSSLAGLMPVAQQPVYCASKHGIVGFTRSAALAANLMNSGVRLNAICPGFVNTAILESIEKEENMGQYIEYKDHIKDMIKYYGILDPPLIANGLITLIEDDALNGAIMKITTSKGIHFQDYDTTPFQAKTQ
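20 nM HPGD preincubated 15 min at room temperature with compound in 50 mM Tris-HCl pH 8, 0.01% Tween 20. Started with 1 mM NAD+ and 30 uM prostaglandin E2; NADH fluorescence (360/450 nm) read 5 times over 30-s intervals, last minus first.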
* = called active by the depositor; ? = inconclusive; & = joins results of further samples; [ ] = dose if it differs, or a comment. On the % scale 0 is the no-effect control and ±100 the full control effect; potency means the concentration at half of the fitted maximal effect.

SMILES | HPGD inh
CCCCn1c(N)c(N(CC)C(=O)c2ccc3c(c2)S(=O)(=O)c2ccccc2C3=O)c(=O)[nH]c1=O | -5.8%
O=C(O)C(Cc1cc2ccccc2[nH]1)N1C(=O)C2CC=C(Cl)CC2C1=O (centres undefined) | -10.4%
CC1=[N+]([O-])C(C)(C)CC(C)(C)c2ccccc21 | -0.8%
O=C(Nc1ccc2nc(-c3cccs3)[nH]c2c1)c1cccs1 | -4.6%
CSCC[C@H](NC(=O)c1cc([N+](=O)[O-])ccc1Cl)c1nc2ccccc2[nH]1 | -2.9%
COC(=O)[C@@]1(Cc2ccc(F)cc2)[C@H]2c3cc(C(=O)N4CCCC4)n(C[C@H](O)CO)c3C[C@H]2CN1C(=O)c1ccccc1 | -3.5%
Cc1ccc(NC(=O)COc2ccc(Br)cc2CO)cc1 | -6.7%
Cn1cccc1CC(=O)NNC(=S)Nc1ccc(Cl)cc1Cl | 11.2µM*
COc1ccc(C(=O)NCCc2nnc(SCC(=O)Nc3ccccc3C(C)C)n2C)cc1 | -5.8%
Cc1cc(NC(=O)c2ccc(S(=O)(=O)Nc3ccccc3)cc2)no1 | -7.5%
Cc1cc(NC(=O)COC(=O)C2CCN(C(=O)c3ccc(Cl)cc3)CC2)no1 | -9.7%
CC(C)OC(=O)CSc1nnc(CNc2ccc(Cl)cc2)n1Cc1ccccc1 | -5.7%
O=C(O)CCCNS(=O)(=O)c1ccc(NCc2ccccc2)c(C(=O)O)c1 | ?
CCOC(=O)NN1C(=O)c2ccccc2NC1c1ccccc1 (centres undefined) | ?
O=C(CC1Oc2ccccc2NC1=O)NCCCN1CCOCC1 (centres undefined) | -0.3%
CCn1c(SCC(=O)NC(=O)NCc2ccco2)nnc1-c1cccs1 | 2.5%
COc1ccc(CC(=O)NC(C)(C)C)cc1S(=O)(=O)N1CCOCC1 | -10.4%
CC1CCc2c(sc3ncn4c(SCC(=O)NCc5ccco5)nnc4c23)C1 (centres undefined) | -17.1%
CCN(C(=O)CSc1nc2cc(C(=O)OC)ccc2c(=O)n1Cc1ccco1)c1cccc(C)c1 | ?
NNCCc1ccccc1 | -9.0%&-12.1%&-1.3%&-6.5%
CCSc1ncc(/C=N/Nc2ccc(Cl)cc2)n1C | -22.6%
Fc1ccc(C2NC(=S)NC3=C2N2CCC3CC2)cc1 (centres undefined) | -5.1%
N#C/C(=C\c1c(N2CCC(C(N)=O)CC2)nc2ccccn2c1=O)S(=O)(=O)c1ccccc1 | -23.9%
COc1cc2c(cc1NC(=O)C(C)OC(=O)C1CC(=O)N(Cc3ccco3)C1)oc1ccccc12 (centres undefined) | 28.2µM*
COC(=O)c1cccc(COC(=O)c2ccc(CS(=O)(=O)c3ccc(C)cc3)cc2)c1 | -18.0%
CC1(C)CC(=O)C2=C(C1)N(c1ccccc1)C(=O)C2(O)C(F)(F)F (centres undefined) | -7.3%
Cc1oc2cc(O)ccc2c(=O)c1Oc1ccccc1 | ?
CC12CN3CC(C)(CN(C1)C31C(=O)N(Cc3ccccc3)c3ccccc31)C2=O (centres undefined) | 4.3%
COc1ccc(-c2cc(-c3ccccc3)nc(SCC(=O)Nc3ncc(C)s3)c2C#N)cc1 | ?
COc1cc(/C=N/S(=O)(=O)CCc2ccccc2)cc(OC)c1O | -7.5%

Carrying on:
SMILES | HPGD inh
CC(C)(C)C(=O)CN1CCN(C2c3ccccc3-c3ccccc32)CC1 | -16.1%
C[C@H]1C(O)[C@@]23CCC4C5(C=[N+](CCO)C[C@]4(C)CCC5)C2C[C@@H]1C3 (some centres undefined) | -3.2%
CCCCNC(=O)C1CCN(c2nc(OC)nc(OC)n2)CC1 | -21.2%
C=C(C)Cn1c(C)cc(C)c(S(=O)(=O)c2ccccc2C)c1=O | 0.9%
Cc1ccc(CNC(=O)CCS(=O)(=O)c2cccc3nsnc23)cc1 | -13.6%
C/C(O)=C\c1nc2ccccc2oc1=O | -5.5%
Cc1ccsc1/C=N/NC(=O)c1ccc(Cn2cc(Br)cn2)o1 | -0.3%
CC(C)(C)OC(=O)NCCCCC1=CC2=CC(=O)C(C)(OC(=O)c3ccco3)C(=O)C2=CO1 (centres undefined) | -19.6%
COc1ccc(OCc2nc3ccccc3[nH]2)cc1 | -14.7%
COc1ccc(/C=C2\N=C(C)N(c3ccc(C(=O)O)cc3)C2=O)cc1OC | -19.0%
NC(=O)C[C@@H](N)c1nn[nH]n1 | -5.1%
Cc1c(NS(=O)(=O)c2cccc(C(=O)NCc3ccccc3)c2)c(=O)n(-c2ccccc2)n1C | -21.1%
Cc1nc(C(=O)N(C)C)nn1-c1cc(Cl)ccc1Cl | -8.8%
O=c1c(S(=O)(=O)c2ccc(Cl)cc2)cn(Cc2ccccc2F)c2ccc(F)cc12 | ?
COCCCNC(=O)C12CCC(C)(C(=O)C1)C2(C)C (centres undefined) | -1.6%
COc1ccccc1N1CCN(CC(=O)Nc2cccc(F)c2)CC1 | -3.8%
COc1ccccc1NC(=O)C1=C(C)NC(SCC(=O)c2ccc(C)cc2)=C(C#N)C1c1ccco1 (centres undefined) | ?
CN1CCN(c2ccc([N+](=O)[O-])cc2/C=N/NC(=O)c2cccc([N+](=O)[O-])c2)CC1 | -16.6%
CCOC(=O)c1c(C)[nH]c(C)c1C(=O)COC(=O)/C=C/c1cccc(Cl)c1 | -7.8%
O=C(O)c1cc(Cl)c(Cl)cc1C(=O)N1CCOCC1 | -6.4%
COc1ccc(CCNC(=O)COc2ccc(-c3ccc(C#N)cc3)cc2)cc1 | -7.2%
COc1nc(Cl)cn(-c2ccc(C)cc2)c1=O | -21.4%
CCC(=O)Nc1ccc(NC(=O)c2ccccn2)cn1 | -4.1%
CCOC(=O)C1=C(N)OC2=C(C(=O)CC(C)(C)C2)C1c1cccs1 (centres undefined) | -20.6%
CN(C)CCCNc1cc(Cl)c(S(=O)(=O)N2CCCCC2)cc1C(=O)O | -17.1%
C/C(=N\Nc1nc2c(s1)CCCC2)c1ccc(Cl)cc1 | -14.4%
CCN(CC)CCCNC(=O)N[C@@H](Cc1ccccc1)C(=O)O | -5.2%
CCOC(=O)c1oc2ccccc2c1NC(=O)c1ccc2c(c1)OCO2 | 75.1%[activator]
CCCC(=O)Nc1ccc(N2CCOCC2)cc1 | -10.9%
O=C(c1ccco1)N1CCC(c2nc(-c3ccccc3Cl)no2)CC1 | 1.4%

Next records follow.
SMILES | HPGD inh
Cc1n[nH]c(=O)nc1Nc1ccc(O)cc1 | -9.4%
Cc1cc(C)cc(-n2c(C)cc(/C=N/NC(=O)CSc3ncccn3)c2C)c1 | -15.5%
N#Cc1nc(Cc2cccc3ccccc23)oc1NCC1CCCO1 (centres undefined) | -11.9%
O=C(Cn1ncnn1)OCc1ccccc1Cl | -0.1%
C/C(=N\NC(=O)c1ccc(Br)cc1)C1C(=O)c2ccccc2C1=O | -16.2%
Cc1cccc(N(C(=O)Cn2nnc3ccccc32)C(C(=O)NC(C)(C)C)c2ccsc2)c1 (centres undefined) | -4.1%
Cc1ccc(NCCC(=O)c2ccc(Cl)cc2)cc1C | -10.1%
COc1cc(-c2noc(CCC(N)=O)n2)cc(OC)c1OC | -3.7%
Oc1oc(-c2ccccc2)nc1C=Nc1ccccc1 | -22.2%
CCOC(=O)C1=C(C)Nc2nc(SCC)[nH]c(=O)c2C1c1ccncc1 (centres undefined) | -31.5%
CC1=C(C(=O)OCc2ccccc2)C(c2ccc(C(F)(F)F)cc2)NC(=O)N1CCCCCC(=O)O (centres undefined) | -4.5%&-7.3%
CCC(C)NC(=O)C1CCC(=O)N1Cc1ccc(C)cc1 (centres undefined) | -8.7%
NC(=O)c1cc(-c2ccccc2)nc(N2CCOCC2)n1 | -6.1%
O=c1oc2c(CN3CCOCC3)c(O)c(Cl)cc2c2c1CCCC2 | ?
Cc1ccc(Sc2cc(C(F)(F)F)nc(N(C)C)n2)cc1 | ?
Cc1cccc(-c2cc(C(=O)Nc3ccc4c(c3)OCCO4)c3ccccc3n2)c1 | -16.1%
CCOC(=O)C1=C2c3ccc4ccccc4c3CC(C)(C)N2C(=O)C1=O | ?
CC(OC(=O)C1CCN(S(=O)(=O)c2ccc(Cl)cc2)CC1)C(=O)N1CCc2ccccc21 (centres undefined) | -11.8%
Cc1c([N+](=O)[O-])cc(C(=O)Nc2ccc(Cc3ccncc3)cc2)cc1[N+](=O)[O-] | -9.7%
O=C(CN1C(=O)CSC1=O)NC1CCCCC1 | 6.2%
Cc1ccc(Oc2ccc(-c3nc(N)nc(N)n3)cc2)cc1 | -16.6%
COCCCn1c(C)nc2c(c1=O)c1nc3ccccc3nc1n2CCc1ccccc1 | ?
CCOC(=O)c1c(C)c(C(=O)NCc2cccnc2)c(C)n1CC | -8.8%
Cc1ccc2nc(NCCCO)nc(-c3ccccc3)c2c1 | ?
O=C(NC12CC3CC(CC(C3)C1)C2)N1CCN(S(=O)(=O)c2ccc(Cl)cc2)CC1 | -1.7%
COc1ccc(S(=O)(=O)N(CCc2ccccc2)CC(=O)N/N=C/c2ccc3c(c2)OCO3)cc1 | 22.4µM*
COc1ccc(CCC(C)NC2C3CC4CC(C3)CC2C4)cc1 (centres undefined) | -2.9%
CCc1ccc(NC(=O)CCn2ccnc2C)cc1 | -11.2%
Cc1ccc(CNC(=O)Cc2nc3nc(C)cc(C)n3n2)cc1 | -2.1%
COc1ccc(C(=O)NC(=S)N2CC(C)OC(C)C2)cc1 (centres undefined) | -6.3%

The list goes on (2 carried over from the part before).
SMILES | HPGD inh
Cc1ccc(CNC(=O)Cc2nc3nc(C)cc(C)n3n2)cc1 | -2.1%
COc1ccc(C(=O)NC(=S)N2CC(C)OC(C)C2)cc1 (centres undefined) | -6.3%
Cc1ccc(N2C(=O)C(c3c(C)[nH]n(-c4ccccc4)c3=O)(C(F)(F)F)C3=C2CC(C)(C)CC3=O)cc1 (centres undefined) | -3.7%
CC1(C)Cc2c(sc3nc(SCC(=O)N4CCOCC4)nc(N)c23)CO1 | ?
Cc1ccc(N2C(=O)/C(=C/c3cccnc3)SC2=S)cc1 | -12.9%
CCCc1nc2n[nH]c(N)c2c2c1COC(C)(C)C2 | -1.1%
Oc1cc(O)c2c(c1)O[C@H](c1ccc(O)c(O)c1)[C@H](O)C2 | -7.4%&0.8%
COc1cc(C(=O)N(Cc2ccco2)Cc2cc3ccccc3[nH]c2=O)cc(OC)c1OC | -19.2%
COc1ccc(CCNC(=O)c2c(-c3ccccc3)noc2C)cc1OC | -10.6%
CN(C)CCNC(=O)c1ccc(CS(=O)(=O)c2c(Cl)cccc2Cl)o1 | -0.9%
O=S(=O)(c1ccc2ccccc2c1)N1CCCOC1 | -4.7%
Cc1ccc(C)c(Cn2nnc3c(=O)[nH]c(C(=O)NCC4CCCO4)nc32)c1 (centres undefined) | 1.26µM*
CCOc1ccc(Nc2ncnc3c2cnn3Cc2ccccc2)cc1 | ?
CC(C)N(C(=O)Nc1ccc2nccnc2c1)C(C)C | ?
Cc1cnc2cc(Cl)c(Cl)cc2n1 | -10.3%
CCCCNC(=O)[C@H](CSCc1ccccc1)N1Cc2ccccc2C1=O | -17.8%
O=C(Nc1cc2c(oc1=O)CCCC2=O)c1cccc(Cl)c1 | -13.4%
Cc1ccccc1OC/C(O)=C(\C#N)c1nc2ccccc2[nH]1 | ?
CCOC(=O)N1CCN(C(=O)C2CCCN(c3nc4ccc(OCC)cc4s3)C2)CC1 (centres undefined) | -18.8%
Cn1nc(CC(=O)Nc2ccc3c(c2)OCCO3)c2ccccc2c1=O | -4.3%
O=C(O)C1CCCN1S(=O)(=O)c1ccccc1 (centres undefined) | -3.8%
Cc1cc(NC(=O)CSc2nc3c(c(-c4cccnc4)c2C#N)CCC3)no1 | ?
Cc1ccc(Br)cc1 | -4.4%
CCCCCCN(C(=O)CCCCCN1C(=O)NC(C2CC2)C(C(=O)OCc2ccccc2)=C1C)C(C(=O)NCCCC)c1ccc(OCC(=O)OC)c(C(=O)OC)c1 (centres undefined) | -17.0%
Cc1cc(-c2ccccc2)c2c3c(c(-c4ccccc4)n2n1)c(=O)n(C)c(=O)n3C | -12.1%
CN(C)S(=O)(=O)c1ccc(NC(=O)COC(=O)c2n[nH]c3ccccc23)cc1 | -18.2%
COc1ccc2c(c1)c1ncn(CCc3ccccc3)c(=O)c1n2C | ?
OC(COCCOc1ccc(Br)cc1)CN1CCN(Cc2ccccc2)CC1 (centres undefined) | 1.1%
O=C1N[C@H](Cc2ccccc2)C(=O)N1Cc1cccc2ccccc12 | -10.8%
CC(C)Nc1oc(-c2ccccc2)nc1-c1cccc2ccccc12 | -9.4%
O=C(NC1CCCCC1)[C@H](O)[C@@H](O)C(=O)NC1CCCCC1 | -10.7%
COc1ccc2c(c1)cc(C)c1nnc(SCC(=O)N3CCN(C(=O)c4ccco4)CC3)n12 | -15.8%

Additional records
SMILES | HPGD inh
CS(=O)(=O)N(CC(=O)Nc1cccc(F)c1)Cc1ccccc1 | 0.3%
O=C(Nc1cccc(Cn2cccn2)c1)c1cc2c(s1)CCCC2 | ?
COc1ccc(C(=O)c2ccc(Cl)cc2)cc1 | ?
CCc1ccc(NC(=O)c2ccc3nc(N)sc3c2)cc1 | -15.7%
Cc1ccc(C(=O)Nc2ccccc2Oc2ccccc2)cc1[N+](=O)[O-] | -13.7%
COc1ccc(C2C(C#N)=C(N)Oc3cc(C)n(CCN4CCOCC4)c(=O)c32)cc1OC (centres undefined) | -16.9%
Cc1cc(/C=C2\SC(=S)NC2=O)c(C)n1C | -15.9%
COc1ccc(C(=O)N2CCC(C(=O)Nc3ccc4c(c3)OCO4)CC2)cc1 | -12.3%

This is a subset. The share of hits here may be higher or lower than overall.
